PLK1 PBD inh: PLK1 (human) polo-box domain binding inhibition. P53350. Plk1 PBD binding of FITC phosphopeptide, fluorescence polarization. Potency, µM, without a hit: max response, negative = inhibition, hits mostly inhibitors. hit rate 2.8% among 360,000. AID 720504; further: potency means the concentration at half of the fitted maximal effect; series mostly up to about 57 µM; on the % scale 0 is the no-effect control and ±100 the full control effect; nearly all actives have a fitted effect of over 65% in size
IL-2 act: activators of IL-2; AID 652025; hit rate 0.065% among 360,000; IL-2 activation reporter assay, cell-based qHTS; stimulated with anti-CD3/CD4/CD28 beads; in transgenic mouse T cells; activation, % (series mostly up to about 46 µM); in the data active means activation above about 50%; inconclusive means mostly about 30% to 49%; further: 0% is about no effect
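Readout: EGFP and DsRed signals by fluorescent plate cytometry. Unstimulated transgenic mouse T cells received compound 60 min before antibody-bead stimulation, then incubated 18 h at 37 degrees C.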
HEK293 tox: cytotoxicity counter-screen for GLP-1 receptor inverse agonists | Potency, µM (titrated, usually from 38.3 µM), without a hit: at the top dose activity change, negative = inhibition, most hits filed as inhibitors | hit rate 0.13% among 410,000 | HEK293 cAMP-luciferase reporter cells, luminescence, 24 h;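 further: loss of luciferase light is scored as toxicity; potency means the concentration at half of the fitted maximal effect; on the % scale 0 is the no-effect control and ±100 the full control effect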
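MLSMR compounds, 24 hr on cells at 37 deg C/5% CO2; luminescence after luciferase reagent (12 min RT). Inhibition counted as the undesired cytotoxic outcome.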
DRD3 antagonist: antagonists of human D3 dopamine receptor. P35462. hit rate 2.5% among 360,000. max response, negative = inhibition, %. D3R cells, DiscoveRx beta-arrestin luminescence, antagonist mode; hits give low values; in the data active means max response below about -50%; inconclusive means no clear call, values can overlap the other calls; further: on the % scale 0 is the no-effect control and ±100 the full control effect; mostly tested at two doses, the higher about 12 µM
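Cells expressing the human receptor were seeded at 1500 cells/well, incubated overnight at 37 degrees C in 5% CO2, then exposed to library compounds with dopamine controls for 90 minutes at 37 degrees C before luminescent detection.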
GLP-1R inv ag: GLP-1 receptor (human) inverse agonism | hit rate 1.6% among 410,000 | Potency, µM (titrated, usually from 38.3 µM), for the others: at the top dose activity change, negative = inhibition, most hits filed as inhibitors | AID 624417 | P43220 | HEK293 GLP-1R CRE-luciferase, luminescence, 24 h; GLP-1R form is constitutively active; further: potency means the concentration at half of the fitted maximal effect; on the % scale 0 is the no-effect control and ±100 the full control effect; nearly all actives have a fitted effect of over 55% in size
Target sequence (P43220 whole entry, looked up): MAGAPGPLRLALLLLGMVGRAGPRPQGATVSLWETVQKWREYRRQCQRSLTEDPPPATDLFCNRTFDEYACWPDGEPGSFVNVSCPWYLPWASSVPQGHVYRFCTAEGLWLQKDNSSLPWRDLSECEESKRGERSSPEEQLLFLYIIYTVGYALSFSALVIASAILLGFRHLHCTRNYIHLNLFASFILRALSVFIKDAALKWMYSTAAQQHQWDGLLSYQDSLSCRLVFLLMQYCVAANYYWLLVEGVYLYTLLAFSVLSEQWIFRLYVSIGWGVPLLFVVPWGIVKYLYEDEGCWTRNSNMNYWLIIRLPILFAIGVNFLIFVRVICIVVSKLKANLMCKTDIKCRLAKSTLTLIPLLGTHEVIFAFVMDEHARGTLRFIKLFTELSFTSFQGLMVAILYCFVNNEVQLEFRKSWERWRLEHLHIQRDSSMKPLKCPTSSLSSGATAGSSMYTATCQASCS
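Seeding at 200 cells/uL, 12 h culture, 24 hr compound treatment, then luciferase reagent and a luminescence read; cells are HEK293 stably expressing a constitutively active GLP-1R plus cAMP-responsive luciferase.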
DRD3 agonist: agonists of human D3 dopamine receptor; P35462; D3R DiscoveRx beta-arrestin cells, luminescence, 90 min; max activation, %; hit rate 0.58% among 410,000; in the data active means max activation above about 30%; further: 0% is about no effect; mostly tested at two doses, the higher about 12 µM
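Cells at 1500/well, incubated overnight, then treated with pinned compounds (dopamine as control) for 90 min at 37 degrees C. DiscoveRx reagent added for 30 - 60 minutes at room temperature; luminescence read.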
PI5P4Ka inh: PI5P4K alpha (human) kinase inhibition | P48426 | PI5P4Kalpha enzyme, ADP-Glo luminescence, 60 min; hits give low values | max response, % | hit rate 1.2% among 330,000; active means max response of -50% or lower; inconclusive means between -30% and -50%; inactive means -30% or higher; further: value at the top dose of about 77 µM; on the % scale 0 is the no-effect control and ±100 the full control effect
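Compounds were pin-transferred onto PI5P4Kalpha and substrate in HEPES pH 7.4 buffer with EGTA, CHAPS and 5% DMSO. ATP (5 microM final) started the reaction, which ran 60 minutes at room temperature before ADP-Glo detection.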
GLP1R ag: GLP-1 receptor (human) agonism | P43220 | AID 624172 | Potency, µM (top dose mostly 45.6 µM), without a hit: top-dose activation, hits mostly activators | hit rate 0.007% among 380,000 | HEK293 GLP-1R CRE-luciferase, luminescence, 4-6 h; cells express a hypersensitive GLP-1R form; further: potency means the concentration at half of the fitted maximal effect; % of control where 0% means no effect
An asterisk follows results filed as active; ? = inconclusive; . = not tested or not shown; [ ] = another dose, or the depositor's remark. Unless noted, the call rests on the fitted dose curve; in most records, active means well fitted curve in the direction sought with a large enough effect; inconclusive means small, poorly fitted or top-dose-only effect, or another doubt; inactive means no such curve, though single readings can be large; an effect the other way counts as inactive or inconclusive.

SMILES	PLK1 PBD inh	IL-2 act	HEK293 tox	DRD3 antagonist	GLP-1R inv ag	DRD3 agonist	PI5P4Ka inh	GLP1R ag
CCOC(=O)N1CCN(CCC(=O)c2ccc(Br)cc2)CC1	0.67µM*	-5.0	11%	-3	7%	7	0	-2%
CC1CC1C(=O)OCC(=O)NC(=O)NCc1ccco1 (centres undefined)	-5%	-1.4	1%	17	-11%	3	7	4%
Cc1ccc(Sc2nc3ccc(C)cn3c(=O)c2/C=N/O)cc1	-7%	1.3	5%	-29	12%	-11	4	8%
O=C(O)CC/C(=C\c1cccc(NC(=O)c2ccccc2Cl)c1)c1nc2ccccc2s1	-17%	0.5	-16%	-10	5%	-6	?	-3%
COc1cccc(/C=C/C(=O)OCC(=O)NCc2ccc(Cl)cc2)c1	-2%	-1.1	-2%	15	-7%	2	1	10%
CC(=O)Nc1cc(-c2ccc(C(=O)N3CCOCC3)cc2)cn2c(-c3cccc(C(C)=O)c3)cnc12	-20%	0.5	0%	54	0%	4	-7	6%
COc1cc(Br)c(CC(=O)NC2CC2)cc1OC	6%	-1.0	4%	0	17%	2	-6	4%
N#CCCN(CCC#N)C(=O)c1ccc2c(c1)OCO2	0%	-1.2	0%	-2	0%	6	1	1%
O=C(CN(Cc1ccccc1)C(=O)c1ccco1)NCc1ccc(F)cc1	-6%	-1.0	8%	4	-41%	3	2	7%
c1ccc2c(NCC3CCCO3)nc(-c3ccncc3)nc2c1 (centres undefined)	-6%	-2.2	11%	-9	-6%	-3	0	8%

Not a retest: entries from further up.
SMILES	PLK1 PBD inh	IL-2 act	HEK293 tox	DRD3 antagonist	GLP-1R inv ag	DRD3 agonist	PI5P4Ka inh	GLP1R ag
CCOC(=O)N1CCN(CCC(=O)c2ccc(Br)cc2)CC1	0.67µM*	-5.0	11%	-3	7%	7	0	-2%
CC1CC1C(=O)OCC(=O)NC(=O)NCc1ccco1 (centres undefined)	-5%	-1.4	1%	17	-11%	3	7	4%
Cc1ccc(Sc2nc3ccc(C)cn3c(=O)c2/C=N/O)cc1	-7%	1.3	5%	-29	12%	-11	4	8%
O=C(O)CC/C(=C\c1cccc(NC(=O)c2ccccc2Cl)c1)c1nc2ccccc2s1	-17%	0.5	-16%	-10	5%	-6	?	-3%
COc1cccc(/C=C/C(=O)OCC(=O)NCc2ccc(Cl)cc2)c1	-2%	-1.1	-2%	15	-7%	2	1	10%
CC(=O)Nc1cc(-c2ccc(C(=O)N3CCOCC3)cc2)cn2c(-c3cccc(C(C)=O)c3)cnc12	-20%	0.5	0%	54	0%	4	-7	6%

3 compounds from above, sorted by length of the SMILES, high to low:
SMILES	PLK1 PBD inh	IL-2 act	HEK293 tox	DRD3 antagonist	GLP-1R inv ag	DRD3 agonist	PI5P4Ka inh	GLP1R ag
O=C(O)CC/C(=C\c1cccc(NC(=O)c2ccccc2Cl)c1)c1nc2ccccc2s1	-17%	0.5	-16%	-10	5%	-6	?	-3%
c1ccc2c(NCC3CCCO3)nc(-c3ccncc3)nc2c1 (centres undefined)	-6%	-2.2	11%	-9	-6%	-3	0	8%
COc1cc(Br)c(CC(=O)NC2CC2)cc1OC	6%	-1.0	4%	0	17%	2	-6	4%

Remaining list, next part.
SMILES	PLK1 PBD inh	IL-2 act	HEK293 tox	DRD3 antagonist	GLP-1R inv ag	DRD3 agonist	PI5P4Ka inh	GLP1R ag
CC(C)Cc1nc2n[nH]c(N)c2c2c1CCC2	-18%	-1.7	-3%	-23	63%[activator]	-5	-3	18%
C=CCNC(=O)c1onc(CCl)c1C(=O)OC	-16%	1.2	?	5	?	65*	-1	-1%
CCOC(=O)C1(CC2CCCCO2)CCN(S(=O)(=O)c2ccccc2)CC1 (centres undefined)	-15%	-0.3	16%	5	14%	3	1	5%
CC(=O)Nc1c(O)nc(SCC(=O)Nc2sc3c(c2C#N)CCCCCC3)[nH]c1=O	-23%	-2.9	-27%	?	0%	-11	.	-11%
O=C(CSc1ccc(Cl)cc1)Nc1ccc(NC(=O)c2ccco2)cc1	0%	-1.9	2%	-9	12%	13	.	-1%
CCc1ccc(NC(=O)COc2ccc(/C=C(/C#N)c3nc4ccccc4[nH]3)cc2OC)cc1	-6%	-0.5	.	4	?	18	8	8%
COc1cccc(/C=C/C(=O)OCC(=O)N2CCN(S(=O)(=O)c3ccc(Cl)cc3)CC2)c1	-8%	-0.2	0%	0	-3%	0	0	5%
O=C(c1ccc(F)cc1)C(CN1CCOCC1)c1ccccc1 (centres undefined)	-14%	-0.6	-26%	?	?	-11	3	-47%[inhibitor]
S=c1[nH]nc(-c2ccccc2Cl)n1Cc1ccccc1	-19%	1.1	-6%	-5	-2%	0	-4	-2%
Cn1c(SCC(=O)NNC(=O)c2ccccc2Br)nnc1C(F)(F)F	-11%	0.6	2%	-11	1%	-5	3	-1%
CCN(CC)CCCn1c(C)cc2c(c1=O)C(c1ccccc1)C(C#N)=C(N)O2 (centres undefined)	-8%	-0.3	-16%	-20	-36%	-12	-10	-18%

Looked up above:
IL-2 act with `O=C(O)CC/C(=C\c1cccc(NC(=O)c2ccccc2Cl)c1)c1nc2ccccc2s1` : 0.5
DRD3 antagonist with `CCc1ccc(NC(=O)COc2ccc(/C=C(/C#N)c3nc4ccccc4[nH]3)cc2OC)cc1` : 4
GLP-1R inv ag with `CC(=O)Nc1cc(-c2ccc(C(=O)N3CCOCC3)cc2)cn2c(-c3cccc(C(C)=O)c3)cnc12` : 0%
PI5P4Ka inh with `CC1CC1C(=O)OCC(=O)NC(=O)NCc1ccco1` (centres undefined) : 7

Not all compounds are listed; rates above refer to the full screens.
